Screening data deposited in PubChem by Fisher Drug Discovery Resource Center.
NPYLR7 agonist: activates Aedes aegypti NPYLR7 receptor. hit rate 0.15% among 270,000. HEK293T NPYLR7/Galpha15, GCaMP6s calcium fluorescence. activation, % at 10 µM; in the data active means activation above about 40%;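 further: 0% = vehicle and 100% = reference agonist at the receptor; some compounds past the cut are filed as inactive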
NPYLR7 agonist max-min: also measured in NPYLR7 agonist; calls as there; activation, %; measured here: Max-Min RFU normalised activation; some inactives read as strong as hits;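 span of the calcium signal over five minutes; 0% = vehicle and 100% = native peptide agonist; compound fluorescence can raise it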
* = called active by the depositor; & = joins results of further samples.

Values in the order: NPYLR7 agonist, NPYLR7 agonist max-min
CC1=C(C(=O)OCCOc2ccccc2)C(c2ccccc2OC(C)C)C2=C(CC(c3ccccc3)CC2=O)N1 (centres undefined)
    4, 4
Cc1nn(CN(Cc2ccc(F)cc2)C2CC2)c(C)c1S(=O)(=O)N(C)C
    2, 0
Cn1cc(/C=N\OCC(=O)O)nc2c(=O)n(-c3ccccc3)c(=O)nc1-2
    10, 7
Cc1cc(OCC(=O)Nc2cc([N+](=O)[O-])ccc2F)ccc1Br
    -7, -7
CCOC(=O)c1sc(N=Nc2[nH]c(C)c(C(=O)OCC)c2C)c(C(=O)OCC)c1C
    -20, -26
COCc1nn2c(nnc3c(=O)n(CCC(C)C)ccc32)c1-c1ccc(F)cc1
    6, 5
CCC(C(=O)NCc1cccnc1)n1c(=O)n(-c2ccccc2Cl)c(=O)c2ccc(Cl)cc21 (centres undefined)
    2, 15
COc1ccc(S(=O)(=O)N2CCCC(C)C2)cc1N1CCN(C(=O)Cc2ccccc2)CC1 (centres undefined)
    -2, 7
COc1ccccc1N(CC(=O)NCC(F)(F)F)S(=O)(=O)c1cccs1
    -2, -4
Cc1cnc(C(=O)N(c2ccc(Nc3ccccc3)cc2)C(C)C)cn1
    7, 5
COc1ccc(N(C)C(=O)C2CCCN(Cc3ccccc3)C2)cn1 (centres undefined)
    4, -1
O=C(Nc1sc2c(c1C(=O)O)CCCC2)c1cccnc1
    1, -1
CSc1ccccc1C(=O)Nc1cc(C(F)(F)F)ccc1C(=O)O
    -2, -2
CC(C)N(Cc1cccc(OS(=O)(=O)c2cccc(C(F)(F)F)c2)c1)C(=O)Nc1cccc(Br)c1
    16, 17
NC(=O)c1sc(=S)n(-c2ccc(Br)cc2)c1N
    7, 8
CCc1cccc(C)c1NC(=O)C(c1ccc(Cl)cc1)C(C)C (centres undefined)
    3, 3
CCc1ccc(C(=O)Nc2c(-c3ccc(OC)cc3)nc3ccccn23)cc1
    -2, 5
Cc1cc(N2CCC3(CC2)N=C(N(C)C)NC3=O)nc(-c2cccnc2)n1
    1, -5
C=CCn1c(SCC(=O)NC(=O)NC)nnc1-c1ccccc1
    -10, -4
COc1cc(C=NNC(=O)c2cc(-c3ccc4c(c3)OCO4)n[nH]2)ccc1O
    1, 4
CCOC(=O)c1cc(C)nn1C1CCN(C(=O)C(CC)c2ccccc2)CC1 (centres undefined)
    2, -3
CC(=O)Nc1ccc(CN2C(=O)C(C)(C)ON=C2c2ccc(C)cc2)cc1
    1, -2
Cc1ccc(-n2nnnc2CNC(=O)c2ccc3ccccc3c2)cc1C
    15, 16
CC(=O)C1=C(c2ccccc2)N(C(C)=O)n2c(nnc2-c2ccccc2)S1
    1, -1
Nc1cccc(-c2c(F)cccc2F)c1
    1, 0
O=C(Cc1cc(-c2cc3ccccc3o2)on1)NC1=NCCS1
    10, 14
O=C(c1ccccc1)N1N=C(C2CC2)CC1(O)C(F)(F)F (centres undefined)
    2, 3
CN1CC=C(C2CCN(C(=O)/C=C/c3ccccc3)CC2)CC1
    6, 6
CO[C@H]1CN(C(=O)c2cnnn2-c2ccccc2)CC[C@H]1N
    0, 17
O=C(Nc1nc(-c2ccc(Cl)s2)cs1)c1cccs1
    3, 5

Values in the order: NPYLR7 agonist, NPYLR7 agonist max-min
Cc1ccnc(SCc2cc(=O)c(OC(=O)COc3ccc(F)cc3)co2)n1
    -16, -12
O=C(CCc1n[nH]c2c1CCCC2)N1CCCC(O)(CO)CC1 (centres undefined)
    10, 5
CCc1ncc2c(n1)CN(C(=O)c1cnc(C)cn1)C2
    -2, -1
CC(C)c1nccc(CN2CCC(c3ccnc(-c4ccncc4)c3)C2)n1 (centres undefined)
    3, 0
Cc1nc(Cl)cc(Oc2cccc(C(=O)NCC(C)O)c2)n1 (centres undefined)
    5, 5
Cc1ccc(C(=O)NCCc2n[nH]c3c2CCCC3)cc1NC(=O)C1CC1
    3, -3
CN(C)C(=O)c1cc(Cl)c(Cl)c(Cl)c1Cl
    9, 11
Cc1ocnc1C(=O)NC1CCCN(CC2CCCCC2)C1 (centres undefined)
    17, 5
Cc1nc(C(F)(F)F)ccc1C(=O)N1CCCN(Cc2cc(=O)c(OCc3ccc(C(C)(C)C)cc3)co2)CC1
    11, 3
Fc1ccc(Oc2cc(N3CCCC3)ncn2)c(Cl)c1
    -10, -2
CCCCCNC(=O)CNC(=O)c1ccc(Cl)c(Cl)c1
    3, 2
Cc1cccc(NC(=O)Nc2c(C)nc3ccccn3c2=O)c1
    -4, -5
Cc1cc(C)cc(Oc2ccc(NC(=O)C3C4CC5OC(=O)C3C5C4)cc2)c1 (centres undefined)
    3, 5
CCOc1ccc(NC(=S)NCCCO)cc1
    0, 0
COc1ccc(CN(C(=O)Nc2ccccc2F)C(C)C)cc1OS(C)(=O)=O
    7, 15
CC(C)CN(CCC(=O)NC(C)c1ccccc1)c1nc(C2CC2)nc2cc(Cl)ccc12 (centres undefined)
    -3, -3
COCC1(C(=O)NCCN2CCOC2=O)CCC1
    -1, -2
CCOC(=O)c1ccc(NC(=O)Cn2cnc3c(nnn3-c3ccc(C)cc3)c2=O)cc1
    1, 6
COCCN(CC(=O)N(CCc1c[nH]c2ccccc12)Cc1ccccc1OC)C(=O)Nc1cccc(Br)c1
    -4, 2
CCC(C)NC(=O)NC(=O)N(C1CCCCC1)S(C)(=O)=O (centres undefined)
    2, -1
CC1(C(=O)Nc2cccc3c2CCCC3)CCN1C(=O)CCc1ccc(Cl)cc1Cl (centres undefined)
    -2, -3
CC(C)N(C)c1nc(-c2ccccc2)nc2c1CN(C(=O)COc1ccc(Cl)cc1)CC2
    4, 10
CC(N)C1CC1c1ccccc1 (centres undefined)
    5, 4
CC(C)(C)c1nnc(N)s1
    4, 5
CC(C)(O)C#Cc1ccc(C(=O)NCCc2n[nH]c3c2CCCC3)o1
    -1, -5
COCCCn1c(C)cn2c3c(=O)n(Cc4c(F)cccc4Cl)c(=O)n(C)c3nc12
    19, 5
CCCC1CCc2nc(NC(=O)c3ccn[nH]3)sc2C1 (centres undefined)
    -21, -23
CCOC(=O)c1c(C)[nH]c(C(=O)N2CCOC3(CNCCOC3)C2)c1C (centres undefined)
    0, -8
COc1ccc(-n2c(=O)c3ccccc3n(C(C)C(=O)NCc3ccc(F)cc3)c2=O)cc1 (centres undefined)
    17, 20
O=C(NCC1CCCN(C(=O)CSc2ccccc2)C1)c1ccc(-c2ccccc2)cc1 (centres undefined)
    5, 3

Values in the order: NPYLR7 agonist, NPYLR7 agonist max-min
CC(C)SC(NC(=O)OCc1ccccc1)C(=O)NCCCN(C)c1ccccc1 (centres undefined)
    -8, -13
COc1ccc(C2c3[nH]c4ccccc4c3CCN2C(=O)CCCc2cccs2)cc1C (centres undefined)
    7&-2, -1&-6
O=C(Cc1cccc2ccccc12)N1CCN(c2ncnc3c2nnn3-c2ccc(Cl)cc2)CC1
    0, -5
COc1ccc(CC(=O)Nc2ccc(-n3nc(OC(C)C)nc3-c3ccc(C)cc3)cc2)cc1
    14, 18
Cc1ccc(NC(=O)N2CCC(n3cc(-c4ccccc4)nn3)CC2)cc1
    -2, -3
CNS(=O)(=O)c1cc(C(=O)Nc2cccc(C)c2)cc(C)c1C
    -25, -26
COc1cn(CC(=O)Nc2cccc3ccccc23)c(CSc2nccc(C)n2)cc1=O
    -4, -8
O=C(NC1CCN(CC2CC2)C1)N1CCC2(CCOC2)C1 (centres undefined)
    8, 6
CSc1nc2cc(NC(=S)NC(=O)c3ccccc3)ccc2s1
    -3, -4
CCc1nc(Cn2cnc(-c3ccccc3)c2-c2ccc(C)cc2OC)no1
    2, 1
CCc1cc(N(CC)CCN(CC)CC)n2ncnc2n1
    23, 7
CCc1nc2c(OCc3ccccc3)cccn2c1N(C)C(=O)COc1ccccc1
    -1, 4
COc1ccc(C(=O)N2CCSC23CCN(C(=O)Nc2ccc(OC)cc2OC)CC3)cc1
    -3, 5
Oc1cccc(-c2cn(Cc3cnn(Cc4ccccc4)c3)nn2)c1
    -1, -5
CC(C)C1CN(C(=O)c2ccc(-n3cncn3)cc2)c2ccccc2N1 (centres undefined)
    -3, -7
Cc1c(/C=C/C(=O)c2ccccc2)cnn1C
    -2, -6
COC(=O)c1cc(Cl)c2c(c1)CC(CNC(=O)CCCCCl)O2 (centres undefined)
    1, -1
COc1cc(-c2oc3cc(OCc4ccccc4)ccc3c(=O)c2O)cc(OC)c1OC
    2, 3
Cc1ccc(Cc2nsc(N3CCN(C(=O)c4ccc(Cl)c([N+](=O)[O-])c4)CC3)n2)cc1
    15, 20
O=C(COc1ccc(F)cc1)N1CCN(c2nccn2-c2cccc(Cl)c2)CC1
    1, 3
CCC(C(=O)N1CCN(C(C(=O)N(CC)CC)C2CCCC2)CC1)c1ccccc1 (centres undefined)
    -4, -4
Cn1c(=O)c2c(ncn2CC(=O)NCCCO)n(C)c1=O
    17, 25
C=CCNS(=O)(=O)C1CON(C)C1c1ccc(C#N)cc1 (centres undefined)
    7, 4
CCn1c(-c2ccc3c(c2)OCCO3)cnc1SC1CCOC1=O (centres undefined)
    0, -3
CCC(C(=O)NC1CC1)n1c(=O)n(-c2ccc(F)c(Cl)c2)c(=O)c2ccccc21 (centres undefined)
    7, 10
CO[C@H]1CN(C(=O)c2cccnc2SC)[C@H]2Cc3c(oc4ccccc34)[C@@H]1C2
    14, 27
C/C=C/C=CC(=O)N(C)C(C)c1cccc(S(N)(=O)=O)c1 (centres undefined)
    -4, -5
CC(NC(=O)CCNC(=O)c1ccc(F)cc1)c1cnn(-c2ccccc2)c1 (centres undefined)
    -6, -9
Cc1ccc(CN(C)C(=O)c2ccc(F)c(S(N)(=O)=O)c2)o1
    6, 5
CC(C)(C)C(=O)NCCC(=O)NCc1ccc(F)c(Cl)c1
    9, 6

Exported tab-delimited: part of the list above.
mol	NPYLR7 agonist	NPYLR7 agonist max-min
CC(C)SC(NC(=O)OCc1ccccc1)C(=O)NCCCN(C)c1ccccc1 (centres undefined)	-8	-13
COc1ccc(C2c3[nH]c4ccccc4c3CCN2C(=O)CCCc2cccs2)cc1C (centres undefined)	7&-2	-1&-6
O=C(Cc1cccc2ccccc12)N1CCN(c2ncnc3c2nnn3-c2ccc(Cl)cc2)CC1	0	-5
COc1ccc(CC(=O)Nc2ccc(-n3nc(OC(C)C)nc3-c3ccc(C)cc3)cc2)cc1	14	18
Cc1ccc(NC(=O)N2CCC(n3cc(-c4ccccc4)nn3)CC2)cc1	-2	-3
CNS(=O)(=O)c1cc(C(=O)Nc2cccc(C)c2)cc(C)c1C	-25	-26
COc1cn(CC(=O)Nc2cccc3ccccc23)c(CSc2nccc(C)n2)cc1=O	-4	-8

(cont.)
Values in the order: NPYLR7 agonist, NPYLR7 agonist max-min
CC(=O)c1c(C)[nH]c(N=Nc2cccc(C(=O)OCC(=O)Nc3ccc(F)cc3)c2)c1C
    -6, -11
COc1ccc(OC)c2sc(N3CCN(C(=O)C4=COCCO4)CC3)nc12
    5, 3
COC(=O)c1c(C)[nH]c(C(=O)C(C)OC(=O)C=C(C)C)c1C (centres undefined)
    16, 11
CCN(CC)c1ccc(/C=C2/SC(=S)N(c3cccc(C(F)(F)F)c3)C2=O)cc1
    2, 6
COC(=O)c1cc2n(n1)CCCN(C(=O)c1scc3c1OCCO3)C2
    12, -3
O=C1NCCCCC1Sc1nncn1Cc1ccco1 (centres undefined)
    3&-1, 2&-2
O=S(=O)(NC[C@@H]1[C@H](O)[C@@H]2O[C@H]1c1ccccc12)c1cccs1
    3, 12
Cc1cc(C)cc(NC(=O)COc2ccccc2/C=N\NC(=O)C(=O)NCCc2ccccc2)c1
    7, 6
CC(Cl)C(=O)N(C)c1ccc(-c2onc3c2CCc2ccccc2-3)cc1 (centres undefined)
    1, -2
COc1cccc(N2CCN(c3nc(-c4ccccc4F)nc4ccccc34)CC2)c1
    0, 5
COCCCN(CC(=O)N(CCc1ccc(OC)c(OC)c1)Cc1cccs1)C(=O)Nc1ccc(F)c(Cl)c1
    1, 7
COc1cc(C(=O)N(C)CC(=O)Nc2c(C)cc(C)cc2C)ccn1
    1, 0
Cc1ccc(C)c(N2C(=O)c3ccc(C(=O)NC4CCCCC4C)cc3C2=O)c1 (centres undefined)
    -2, -3
Cc1ccnc2nc(C(C#N)C(=O)/C=C/c3cccc(Cl)c3)[nH]c12 (centres undefined)
    0, 26
O=C(NC1CCCC1)c1ccc(Oc2ccccc2)cc1
    0, 2
CN(C)S(=O)(=O)NCC1CC2c3ccccc3C1c1ccccc12 (centres undefined)
    11, 11
Cc1ncccc1Oc1ncnc(N2CCCC(O)(CO)CC2)c1C (centres undefined)
    18, 4
CN1CCN(c2ccc(NC(=O)CCCSc3ccccc3)cc2)CC1
    -14, -18
OC[C@H]1O[C@@H](n2cnc3c(NCc4ccco4)ncnc32)[C@H](O)[C@@H]1O
    7, 5
O=C(CNC1CC1)N(Cc1ccco1)CC1CCCO1 (centres undefined)
    18, 20
CCC[C@@H]1C[C@@H](C(=O)N[C@@H](C2O[C@H](SC)[C@H](O)[C@@H](O)[C@H]2O)[C@H](C)Cl)N(C)C1 (some centres undefined)
    0&-2, -5&-4
CCOC(=O)c1c(NC(=O)c2ccc(OC)cc2)sc(C(=O)Nc2ccc(OC)cc2)c1C
    -8, -13
CCOC(=O)Cn1c(=NC(=O)CCCS(=O)(=O)Cc2ccccc2)sc2cc(F)cc(F)c21
    -10, -16
CC(C)c1nccn1C(C)C(=O)N(C)Cc1nncn1C(C)C (centres undefined)
    2, -1
CCOc1ccccc1NC(=O)NCc1nnc(SCc2cccc(OC)c2)n1-c1ccc(C)cc1
    19, 25
COc1ccc(Cl)cc1S(=O)(=O)N1CCN(c2c(Cc3ccccc3)c(C)nc3ncnn23)CC1
    -2, -4
Fc1ccccc1OCC1CCCN(Cc2nc(-c3cccs3)no2)C1 (centres undefined)
    20&-6, 3&-9

An excerpt (hit frequency here may not be typical).
